Source: PubChem (Fisher Drug Discovery Resource Center)
NPYLR7 agonist = agonists of mosquito NPYLR7 receptor, primary screen, cell-based, Aedes aegypti, calcium fluorescence, mosquito biting behavior; HEK293T NPYLR7/Galpha15, GCaMP6s calcium fluorescence; activation, % at 10 µM; hit rate 0.15% among 270,000; in the data active means activation above about 40%;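 further: 0% = vehicle and 100% = reference agonist at the receptor; some compounds past the cut are filed as inactive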
NPYLR7 agonist max-min = further read-out of NPYLR7 agonist, marked with its call; activation, %; measured here: Max-Min RFU normalised activation; some inactives read as strong as hits;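 span of the calcium signal over five minutes; 0% = vehicle and 100% = native peptide agonist; compound fluorescence can raise it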
An asterisk follows results filed as active; & = joins results of further samples. Some of the compounds tested; rates above refer to the full screens.

Every second line gives: NPYLR7 agonist, NPYLR7 agonist max-min
> CC(=O)Nc1cc(C(=O)N2CCC(c3ccccc3F)C2)cc2ncn(Cc3ccc(F)cc3)c12 (stereo not given)
    15.8, 2.1
> CCCc1ccccc1NC(=O)c1oc2c(c1C)C(=O)CCC2
    8.5, 4.9
> CCSc1nc2nc3c(cn2n1)C(=O)CCC3
    1.5, 39.9
> COC(=O)C(CCSC)NC(=O)c1cc(COc2ccc3sc(C)nc3c2)on1 (stereo not given)
    0.5, -3.4
> Cc1ccccc1S(=O)(=O)N1CCN(CCCOC(c2ccc(Cl)cc2)c2ccc(Cl)cc2)CC1
    2.5, 0.6
> CC/C=C(/C)C(=O)N1CCN(C(=O)/C(C)=C/CC)C(C(=O)N(C)C)C1 (stereo not given)
    1.8, 0.8
> COCC1CN(C(=O)Nc2cc(Cl)ccc2F)CCO1 (stereo not given)
    7.7, 6.5
> COc1ccc(C2=NC(=Cc3ccc(F)c(F)c3)C(=O)O2)cc1
    16.8, 6.3
> CCCCNC(=O)C1(C)CCCCCN1Cc1cccc2c(OC)cc(C(=O)OCC)cc12 (stereo not given)
    3.2, 3.0
> CCCC(=O)N1CC2(C)CN(C(=O)CCC)CC(CCC)(C1)C2=O
    5.1, 2.6
> CCCC1CCc2c(sc(=O)n2CC(N)=O)C1 (stereo not given)
    0.7, -1.0
> CCCN1CCC(N(C)C(=O)Nc2ccccc2F)CC1
    23.1, 10.3
> Cc1cccc(Sc2nccn(C)c2=O)c1
    6.8, 1.0
> COc1ccc(OCC(=O)Nc2nc(C)c(C)s2)cc1
    -9.9, -3.1
> O=C(CN1CCOCC1)N1N=C(c2ccccc2Cl)CC1c1ccc2c(c1)OCO2 (stereo not given)
    -2.9, 5.8
> NC(=O)C1CCCN(C(=O)c2ccc(-c3cccc(C(F)(F)F)c3)o2)C1 (stereo not given)
    5.6, 3.4
> Cn1c(=O)c2c(SCc3cccnc3)nc(-c3ccccc3)nc2n(C)c1=O
    7.2, 7.8
> O=C(Nc1nnc(-c2ccc3c(c2)OCO3)s1)c1ccco1
    5.6, 5.1
> Cc1cc(C)c(CN(C)C(C)C(=O)N(C)C)c(-n2cccn2)c1 (stereo not given)
    -2.8, -2.6
> COc1ccc(C(=O)N2CCC(c3ccc(F)cc3)C2)cc1OC1CCN(C(C)C)CC1 (stereo not given)
    0.0&7.8, -0.8&0.5
> COc1ccc(-c2nnc(SC(C)c3ccccc3)o2)cc1OC (stereo not given)
    10.6, 5.5
> O=C(c1ccc(CSc2nnc(-c3ccncc3)n2-c2ccc(F)cc2)cc1)N1CCN(c2ccccc2F)CC1
    -9.9, 2.0
> CC(NC(=O)c1ccco1)c1nc2ccccc2n1CCc1ccccc1 (stereo not given)
    -1.8, 2.4
> O=C(c1cccs1)N(CCCN1CCOCC1)c1nc2c(F)cccc2s1
    -1.5, -9.0
> O=C(CCN(CCCN1CCOCC1)c1nc(C2CC2)nc2ccccc12)NC1CC1
    13.4, 14.2
> CN(Cc1ccccc1)c1ncccc1CNC(=O)c1ccc(=O)n(C)c1
    -0.1, 59.7
> CC(C)(C)c1cc2nc(-c3ccccc3)cc(C(=O)N3CCN(c4ccccc4F)CC3)n2n1
    9.6, 12.1
> Cc1nc(C)c(C(=O)N(C)C2CCCN(C3Cc4ccccc4C3)C2)s1 (stereo not given)
    1.0, -2.8
> COc1ccc(-c2c(C)[nH]n3c(=O)cc(CSc4nccc(C)n4)nc23)cc1
    -18.4, -26.2
> COc1ccc(OC)c(C2SC(C)C(=O)N2CCN2CCN(C(=O)Nc3ccc(C(F)(F)F)cc3)CC2)c1 (stereo not given)
    18.4, 13.9

Some values from the entries so far.
COc1ccc(C(=O)N2CCC(c3ccc(F)cc3)C2)cc1OC1CCN(C(C)C)CC1 (stereo not given) in NPYLR7 agonist shows 0.0&7.8
CCCC(=O)N1CC2(C)CN(C(=O)CCC)CC(CCC)(C1)C2=O in NPYLR7 agonist max-min shows 2.6
COCC1CN(C(=O)Nc2cc(Cl)ccc2F)CCO1 (stereo not given) in NPYLR7 agonist shows 7.7
COC(=O)C(CCSC)NC(=O)c1cc(COc2ccc3sc(C)nc3c2)on1 (stereo not given) in NPYLR7 agonist shows 0.5

The listing continues.
Every second line gives: NPYLR7 agonist, NPYLR7 agonist max-min
> CN(c1ccccc1)N1CC(C(=O)NC2Cc3ccccc3C2)CC1=O (stereo not given)
    -20.6, -27.7
> CC(CCc1cccc(F)c1)NC(=O)NCC(C)(O)c1cnn(C)c1 (stereo not given)
    -0.8, 7.4
> CCCCC(=O)Nc1ccc(Cl)c2ncccc12
    0.4, -0.6
> COc1ccc(C2CC(=O)C3=C(C2)N=C(C)C(C(=O)OC(C)C)C3c2ccc(OCc3ccccc3)cc2)cc1 (stereo not given)
    -1.1, -3.7
> COC(=O)c1c(NC(=O)COc2ccccc2OC)sc(C)c1C
    -7.3, 17.8
> Cc1cccc(OCC(=O)N(C)C(C)c2ccccn2)c1 (stereo not given)
    2.7, 3.2
> COc1ccc(CCN(Cc2sccc2C)C(=O)CN(CCN2CCCC2)C(=O)C2CCC2)cc1OC
    -6.2, 1.3
> COc1ccccc1NC(=O)CSc1nc2c(-c3ccccc3)c[nH]c2c(=O)n1C
    0.6, -3.9
> NC(=O)C1CCCN1S(=O)(=O)c1ccc(C2CCCCC2)cc1 (stereo not given)
    12.0, 4.7
> O=C(NC1CCOC1=O)c1ccc(SC(F)(F)F)cc1 (stereo not given)
    0.4, 0.0
> CC(C)=CCN1C(=O)c2cnc(C)nc2C[C@@H]1c1ccco1
    14.8, 2.2
> O=C(NCc1ccc(Oc2ccccc2)cc1)c1sc2ccccc2c1Cl
    0.7, 6.6
> Cc1cc(C(=O)N2CCC3(CCCO3)CC2)c2c(=O)[nH]c(=O)n(C)c2n1
    4.6, 3.4
> COCCN1C(=O)N(Cc2cccnc2)C(=O)C12CCN(Cc1ccc(OC)c(OC)c1)CC2
    15.5, 10.9
> CCC(C)Sc1nc(-c2ccccc2)cc(=O)[nH]1 (stereo not given)
    0.9, -1.5
> COc1ccc(Cl)c2sc(N(Cc3cccnc3)C(=O)Cc3ccccc3)nc12
    14.2, 8.2
> CCONC(=O)Cc1nnn(-c2ccccc2)c1C
    5.0, 2.2
> COC(=O)c1cccc(CC2(C)C(=O)Nc3c(Cl)ccc(Cl)c32)c1 (stereo not given)
    -1.7, 1.7
> O=C1C(=Cc2cc(Br)ccc2F)SC(=S)N1CCN1CCOCC1
    -0.9, 13.0
> COC(=O)CCn1cc(C2CC(=O)Nc3c2cnn3Cc2ccccc2)cn1 (stereo not given)
    1.0, 0.6
> CC(=O)c1ccc(S(=O)(=O)NCCn2nc(-c3ccc(F)cc3)ccc2=O)cc1
    -0.9, -2.2
> O=C(CSc1nnc(CSc2nc3ccccc3s2)n1-c1ccccc1)NCCCO
    -2.5, -6.0
> CC1=C(CCN2CC[C@@H](N(C)CCc3ccccn3)[C@H](O)C2)C(C)(C)CCC1
    -17.8, -15.8
> COc1ccc(-n2c(-c3ccccc3)cc(C(=O)NCCCN3CCCCC3C)c2C)c(OC)c1 (stereo not given)
    -1.2, 2.1
> O=C(NC1CCCC1n1ccnc1)c1nn(-c2ccccc2)cc1O (stereo not given)
    2.1, 1.7
> COC(=O)[C@@H]1C[C@@H](N(C)C)CN1C(=O)c1ccc2ncsc2c1
    1.6, -1.6
> CN(C)Cn1c(O)c(N=NC(=O)CON=Cc2ccccc2Cl)c2cc(Br)ccc21
    -0.7, -6.0
> COCCNC(=O)C1CCC(C)N(Cc2c(C)noc2C)C1 (stereo not given)
    5.3, 3.7
> Cc1cccc(C2CCCN2C(=O)NCCS(C)(=O)=O)c1C (stereo not given)
    5.2, 3.8
> Clc1cc(Br)ccc1OCc1nc(-c2ccccn2)no1
    8.6, 7.2
> C/C(=C/C(=O)C(F)(F)F)NCc1ccco1
    -7.8, -9.7
> Cc1cnc2c(Cl)c(C(=O)NCC(=O)NC(C)(C)C)nn2c1
    -4.2, -8.3
> Cc1cc(OC(=O)C2CC2)c([N+](=O)[O-])c(=O)[nH]1
    0.9, 0.1
> COc1ccc(CN(C(=O)CCS(=O)(=O)C2CCCC2)C2CC2)cc1
    2.3, 3.4
> CCSc1nnc(N2C(=O)c3ccc([N+](=O)[O-])cc3C2=O)s1
    -5.7, -12.3
> C=CCCC(O)CN(CCOC)Cc1cccc(OC)c1 (stereo not given)
    -3.4, 3.8
> CCCCCC1=CCCC1=NNC(=S)NCCOC
    -9.3, -16.5
> Cc1nnnn1C(Cc1ccc(F)cc1)C(=O)O (stereo not given)
    2.1, 0.2
> COC(=O)c1ccc(N2CN=C(c3ccc(C)cc3)NC2=S)cc1
    1.6, 7.4
> Cn1c(=O)n(CN2CCN(S(=O)(=O)c3ccc(Cl)c(Cl)c3)CC2)c2ccccc21
    7.3&3.6, 2.9&3.8
> CNS(=O)(=O)c1ccc(CCC(=O)Nc2cnc3n2CCCC3)cc1
    2.5, -1.9
> Fc1ccccc1-c1n[nH]c(=S)n1C1CCCC1
    -0.6, -4.4
> C[C@@H](NC(=O)c1ccc2nc(-c3ccccc3)c(-c3ccccc3)nc2c1)C(C)(C)C
    -10.4, -15.8
> Cc1cccc(-c2cccc(NC(=O)C3CCCN(C(=O)c4cccc(C)n4)C3)c2)c1 (stereo not given)
    8.3, 0.0
> CNC(=O)[C@@H]1[C@@H](c2ccccc2)CN2CCN(Cc3ccccn3)C[C@H]12
    7.3, 20.1
> Clc1ccc(Sc2ccnc3cc(Cl)ccc23)cc1
    2.4, 0.8
> CC1Cc2ccccc2N1Cc1cc(=O)c(OCC(=O)Nc2ccc(Cl)cc2)co1 (stereo not given)
    -1.0, 31.1
> CCN(CC)c1onc(-c2ccccc2)c1CNCc1ccccc1F
    11.9, 11.9
> CCOC(=O)C1CCCCN1CC(=O)N1N=C(c2ccc(F)cc2)CC1c1ccccc1C (stereo not given)
    -0.4, 5.2
> Cn1c(=O)c([N+](=O)[O-])c(N2CCN(CCOc3ccc(Cl)cc3)CC2)c2ccccc21
    7.3, 2.3
> CCCCC1C(=O)N(C)CCN1C(=O)Nc1nc(-c2ccccc2)ns1 (stereo not given)
    6.7, 0.0
> CC(CN1CCC(n2cc(C3CCCC3)nn2)CC1)c1ccccc1 (stereo not given)
    8.2, 6.3
> O=C1CC(c2ccco2)CC2=Nc3ccccc3NC(c3ccco3)C12 (stereo not given)
    14.1, 6.2
> NC1(C(=O)NCC2CCN(Cc3nc4ccccc4[nH]3)C2)CCCC1 (stereo not given)
    5.5, 2.8
> CCCCCCn1c(SC(C)C(C)=O)nc2c1c(=O)[nH]c(=O)n2C (stereo not given)
    3.1, 1.7
> O=C(c1nnn(Cc2cccc(F)c2)c1-n1cccc1)N1CCN(c2ccccc2)CC1
    -3.1, -4.3
> COCCCN(Cc1c(C)nn(-c2ccccc2)c1N1CCN(C)CC1)S(=O)(=O)c1ccc(OC)cc1
    0.2, 4.6
> O=[N+]([O-])c1ccccc1C1c2cccn2CCCN1Cc1ccoc1 (stereo not given)
    16.2, 12.9
> CCCn1c(N2CCN(CCCc3ccccc3)CC2)nc2c1c(=O)[nH]c(=O)n2C
    4.1, 1.2
> CN(Cc1ccsc1)Cc1nnc2n(C)c(=O)c3ccccc3n12
    6.0, 2.7

Additional entries
Every second line gives: NPYLR7 agonist, NPYLR7 agonist max-min
> O=C(CCl)N1CCN(C(=O)c2cccs2)CC1
    -4.1, -8.5
> O=C(CC(=O)N1Cc2cc3c(cc2C2(CCCC2)C1)OCCO3)Nc1nccs1
    1.3, 1.0
> COCCN(Cc1ccc(C)cc1)C(=O)c1ccc(CO)cc1
    -0.2, -0.8
> COc1cn(CC(N)=O)c(CN2CCC(C)CC2)cc1=O
    0.4, -1.3
> COc1cc(OC)cc(-c2nnc(SCC(=O)c3cc(OC)ccc3OC)n2-c2ccc(C)cc2)c1
    17.7, 16.8
> COc1ccc(OC)c(C2c3cccn3CCCN2Cc2ccoc2)c1 (stereo not given)
    -8.4, -5.3
> CC(=O)Nc1ccc(NC(=O)Cn2nc(C)c3cnn(-c4ccccc4)c3c2=O)cc1
    8.0, 5.6
> CCc1nc2ccc(C(=O)NCC3CCCCC3)cn2c1N(CCC(C)C)CCN(C)C
    -4.7, -9.1
> CCCc1[nH]n(-c2ccc(C)cc2C)c(=O)c1C1=C(N(CC)CC)C(=O)N(CC(C)C)C1=O
    5.0, 5.5
> c1ccc(OCCNc2ccc3c(-c4cccnc4)noc3n2)cc1
    2.3, -0.4
> COc1cccc(COC(=O)Cn2cc(C)cn2)c1
    -1.8, -3.7
> Cc1cccc(C)c1OCCSc1nc2ccccc2n1CC(=O)O
    -4.1, -4.0
> C=CC(C)(O)CN(Cc1nc2scc(-c3cccc(OC)c3)c2c(=O)[nH]1)Cc1ccco1 (stereo not given)
    7.9, 7.3
> Cc1c(Cl)cccc1-n1c(C(C)N(Cc2ccccc2)C(=O)c2cc(C(F)(F)F)cc(C(F)(F)F)c2)nc2ccccc2c1=O (stereo not given)
    16.7, 24.1
> CCCOc1cc(Nc2ccc(NC(=O)C(CC)CC)cc2)nc(C)n1
    -2.2, -8.3
> Cc1cc(C)cc(NC(=O)c2ccccc2NS(=O)(=O)c2ccc(C(C)C)cc2)c1
    -3.8, 6.1
> COc1ccc(C)cc1S(=O)(=O)NCc1ccco1
    7.0, 0.9

Random excerpt: 5 compounds from above
Every second line gives: NPYLR7 agonist, NPYLR7 agonist max-min
> O=C(CCl)N1CCN(C(=O)c2cccs2)CC1
    -4.1, -8.5
> C=CC(C)(O)CN(Cc1nc2scc(-c3cccc(OC)c3)c2c(=O)[nH]1)Cc1ccco1 (stereo not given)
    7.9, 7.3
> CCCc1[nH]n(-c2ccc(C)cc2C)c(=O)c1C1=C(N(CC)CC)C(=O)N(CC(C)C)C1=O
    5.0, 5.5
> COc1ccc(C)cc1S(=O)(=O)NCc1ccco1
    7.0, 0.9
> COc1ccc(OC)c(C2c3cccn3CCCN2Cc2ccoc2)c1 (stereo not given)
    -8.4, -5.3

Part of the list above, as tab-separated lines:
structure	NPYLR7 agonist	NPYLR7 agonist max-min
COc1cc(OC)cc(-c2nnc(SCC(=O)c3cc(OC)ccc3OC)n2-c2ccc(C)cc2)c1	17.7	16.8
Cc1cccc(C)c1OCCSc1nc2ccccc2n1CC(=O)O	-4.1	-4.0
